Assay outcomes: PubChem, National Center for Advancing Translational Sciences (NCATS)
A488 autofl: qHTS Assay for Spectroscopic Profiling in A488 Spectral Region; compound autofluorescence, A488 spectral region, dye equivalency; hits give high values; max dye equivalency, M; AID 591, 2007; actives 0.1% (n = 59,000); active = above 10 nM dye equivalent; inconclusive = 1 to 10 nM; inactive = 1 nM or less; about half of its hits are not listed in these tables;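 further: highest value over a series up to 38 µM; compound alone in buffer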
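Compounds pin-transferred into 100 mM Tris buffer, pH 8.0, incubated 15 min at room temperature, then imaged with 480 nm excitation/540 nm emission filters. Fluorescence converted to Alexa 488 dye-equivalent concentration via an on-plate six-point A488 standard curve.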
Resorufin autofl: qHTS Assay for Spectroscopic Profiling in Resorufin Spectral Region | Compound fluorescence, resorufin region 547/598 nm, buffer; hits give high values | max dye-equivalent concentration, M | actives 0.04% (n = 59,000); active = above 10 nM dye equivalent; inconclusive = 1 to 10 nM; inactive = 1 nM or less; a few of its hits are not listed in these tables; further: highest value over a series up to 38 µM
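Tris 100 mM pH 8.0; compound added, 15 min RT; CCD imager read, ex 547 nm/em 598 nm; signal normalized to resorufin standard curve (six concentrations per plate) as dye-equivalent concentration.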
A647 autofl: qHTS Assay for Spectroscopic Profiling in A647 Spectral Region. Compound fluorescence, A647 channel (570/671 nm), Tris buffer. max dye-equivalent concentration, M. 59,000 tested, under 10 active; active means above 1 µM dye equivalent; inconclusive means 0.1 to 1 µM; inactive means 0.1 µM or less;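 further: values scaled relative to a standard on each plate; highest value over a series up to 38 µM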
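Tris 100 mM pH 8.0; cpd + A647 stds pin-transferred; 15 min RT; CCD imager, ex 570/em 671. Output = A647-equivalent conc. per cpd conc.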
TSHR ag: qHTS Assay for Agonists of the Thyroid Stimulating Hormone Receptor. HEK293-CNG-TSHR cells (CNG channel as cAMP sensor), membrane potential dye, cAMP. actives 0.48% (n = 73,000). Potency, µM (top dose mostly 57.1 µM), without a hit: top-dose activation, usual class: activators. AID 926, 2007. Thyrotropin receptor (Homo sapiens), P16473; active = well fitted activation curve of enough size with the parental cells flat; inconclusive = any curve in the parental cells; inactive = parental cells flat and receptor cells flat or falling; further: potency means the concentration at half of the fitted maximal effect; % of control where 0% means no effect; weak receptor curves with flat parental cells got no call and are not listed
Target sequence (P16473 whole entry, looked up): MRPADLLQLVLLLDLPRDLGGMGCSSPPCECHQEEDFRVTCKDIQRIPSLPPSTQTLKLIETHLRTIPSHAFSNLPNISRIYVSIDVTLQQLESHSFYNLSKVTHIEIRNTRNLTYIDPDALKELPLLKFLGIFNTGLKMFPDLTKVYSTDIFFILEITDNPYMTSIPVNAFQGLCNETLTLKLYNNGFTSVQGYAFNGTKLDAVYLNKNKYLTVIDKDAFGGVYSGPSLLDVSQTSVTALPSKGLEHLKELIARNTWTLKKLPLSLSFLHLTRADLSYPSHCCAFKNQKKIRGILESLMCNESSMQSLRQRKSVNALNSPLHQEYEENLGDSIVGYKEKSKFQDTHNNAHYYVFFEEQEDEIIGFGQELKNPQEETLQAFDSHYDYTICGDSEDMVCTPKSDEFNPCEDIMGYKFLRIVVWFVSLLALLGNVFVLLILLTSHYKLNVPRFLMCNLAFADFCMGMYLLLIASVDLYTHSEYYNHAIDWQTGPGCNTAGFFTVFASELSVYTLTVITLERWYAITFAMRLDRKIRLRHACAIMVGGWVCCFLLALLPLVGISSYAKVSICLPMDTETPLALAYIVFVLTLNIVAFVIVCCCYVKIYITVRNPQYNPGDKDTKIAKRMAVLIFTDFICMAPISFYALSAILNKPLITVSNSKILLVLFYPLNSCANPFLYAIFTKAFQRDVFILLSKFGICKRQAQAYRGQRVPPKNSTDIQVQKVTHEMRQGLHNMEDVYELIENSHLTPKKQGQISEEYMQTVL
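HEK 293 cells stably expressing TSHR and a modified CNG channel, with CNG-only parental cells as counterscreen, were preloaded 60 min at room temperature with membrane potential dye containing 100 uM RO 20-1724. Compound exposure was 30 min, and depolarization was read as fluorescence at 590 nm.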
AID923: qHTS Assay for Allosteric/Competitive Inhibitors of Caspase-1: Spectroscopic Profiling in AFC Spectral Region. compound fluorescence, AFC spectral region (405/520 nm); almost no hit is shown here. Potency, µM (top dose mostly 57.5 µM), without a hit: top-dose fluorescence increase, actives largely listed as activators. actives 1.1% (n = 75,000). AID 923, 2007; active means well fitted activation curve with a large enough effect; inconclusive means small, poorly fitted or top-dose-only effect;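 further: potency means the concentration at half of the fitted maximal effect; 0% is about no effect; scaled to a free AFC standard on each plate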
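Titrations up to 57 uM read every 20 sec for 3 min (405/520 nm) with 50 nM caspase 1 and 5 uM Ac-WEHD-AFC, pH 7.5 HEPES buffer. Fluorescence-vs-time intercept gave baseline, scaled against on-plate AFC standard.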
The depositor's hits bear a star; i = inactive; ? = inconclusive; · = not tested or not shown; [ ] = dose if it differs, or a comment.

Sequence of screens: A488 autofl | Resorufin autofl | A647 autofl | TSHR ag | AID923
- O=C(OCC(=O)N1CCOCC1)c1ccc[nH]c1=O
    i | i | 1e-09 | -3% | -0.7%
- C#CCCCO/N=C1/[C@H]2O[C@@H]2[C@@H](O)[C@H]2[C@H]1CCn1c(=O)n(Cc3cc4c(cc3Cl)OCO4)c(=O)n12
    · | · | · | 5%[11.4 µM] | -0.9%[11.5 µM]
- Cc1csc2nc(CSc3nc4ccccc4o3)c(Br)n12
    i | i | 1e-09 | ? | 1.3%
- COc1ccccc1CNC(=O)c1cnc2sccn2c1=O
    · | · | · | -1% | -1.0%
- CC1CCCC(C)N1C(=O)Cn1c(SCC(=O)NCc2ccc3c(c2)OCO3)nc2ccccc21 (stereo not given)
    i | i | 7.8e-09 | ? | -1.5%
- COc1ccc(S(=O)(=O)Cc2ccc(C(=O)N3CCc4ccccc4C3)o2)cc1
    · | · | · | 21% | -0.7%
- COc1ccc(Cc2nnc(NC(=O)Cc3cccs3)s2)cc1OC
    i | i | 1.8e-08 | ? | -0.3%
- COC(=O)c1ccccc1NC(=O)CSc1nnc(CNS(=O)(=O)c2ccc(C)cc2)n1C
    i | i | 2e-09 | 12% | -0.2%
- COc1cc2nc3c4ccccc4n(CC#N)c3nc2cc1OC
    i | i | 3.2e-09 | 18% | 0.2%
- O=C(O)C1C(c2ccccc2)C(C(=O)Oc2ccc(O)cc2)C1c1ccccc1 (stereo not given)
    i | i | 1.5e-08 | 4% | 0.8%
- CCC(Sc1ccccn1)C(=O)Nc1nnc(C)s1 (stereo not given)
    i | i | 9.1e-09 | -3% | 0.5%
- CC(=O)Nc1cccc(-c2nnc(SCc3ccccc3C#N)n2C)c1
    i | i | 3.8e-09 | -3% | -1.1%
- O=c1cc(Nc2ccc3c(c2)OCCO3)[nH]c(=O)n1C1CCCCC1
    i | i | 1.3e-08 | 2% | 0.3%
- COC(=O)c1cccc(-n2nnnc2SCC(=O)Nc2cc(C)on2)c1
    i | i | 2.4e-08 | 2% | 2.6%
- CC(=O)NCCCCCCNC(C)=O
    i | i | 3.9e-08 | · | ·
- CCOC(=O)C1=C(N)n2c(s/c(=C/c3ccco3)c2=O)=C(C(=O)OC)C1c1ccco1 (stereo not given)
    i | i | 1.1e-08 | 0% | 7.7%
- Nc1nc(F)nc2c1ncn2[C@@H]1O[C@H](CO)[C@@H](O)[C@@H]1O
    i | i | 1e-09 | · | ·
- CC1(C)CC(=O)C(Sc2nnc(-c3ccc(NS(C)(=O)=O)cc3)n2Cc2ccco2)C(=O)C1
    i | i | 3.2e-08 | 2% | -0.2%
- COc1cccc(OC)c1C(=O)N1CC(C)OC(C)C1 (stereo not given)
    i | i | 1.6e-08 | -3% | -1.8%
- Cc1cc(C)nc(NC(=NCc2ccc3c(c2)OCO3)NC(=O)Nc2ccccc2)n1
    i | i | 2e-09 | · | 0.4%
- O=S1(=O)C=CC(N2CCOCC2)C1 (stereo not given)
    · | · | · | 1% | -0.4%
- COc1cccc2c1OC1(C)CC2NC(=O)N1c1cccc(C(=O)N2CCN(c3ccccn3)CC2)c1 (stereo not given)
    i | i | 1e-09 | 3%[11.4 µM] | 1.8%
- Cc1ccc(SCc2nc(-c3cccnc3)no2)cc1
    i | i | 4.3e-08 | 14% | -0.7%
- COc1ccc(CNC(=O)c2onc(C)c2Cl)cc1
    · | · | · | 20% | -1.1%
- CCCOc1ccc2oc(=O)c3c(c2c1)CCCN3C(=O)CN1CCN(c2ncccn2)CC1
    i | i | 8.4e-09 | ? | -0.5%
- CCn1c(SCC(=O)NC(=O)Nc2ccc3c(c2)OCCO3)nnc1-c1cccs1
    i | i | 2.2e-08 | · | -0.8%
- COc1cc(NC(=O)CSc2nccc(C)n2)c(C(=O)O)cc1OC
    i | i | 3.8e-09 | 12% | 5.9%
- CCCCCCn1cc(C(=O)O)c(=O)c2ccccc21
    i | i | 3e-09 | · | ·
- CCN1CCN(c2ccc(NC(=O)Cc3ccccc3)cc2)CC1
    i | i | 8.9e-09 | -14% | 0.9%
- COc1ccc(CCNC(=O)c2ccn[nH]2)cc1OC
    i | i | 4.8e-09 | -1% | 1.4%
- CC(CNC(=O)c1cncc(O)c1)NC(=O)c1cncc(O)c1 (stereo not given)
    i | i | 1e-09 | 1% | 1.3%
- O=C(/C=N/O)NCCN1CCCCC1
    i | i | 2.2e-09 | -2% | -1.5%
- COc1ccccc1NC(=O)NCC(=O)Nc1ccc(F)c(F)c1
    i | i | 8.8e-09 | ? | -0.3%
- O=C1C(=O)c2ccccc2C(O)=C1Cc1ccccc1
    i | i | 1e-09 | 2%[11.4 µM] | 3.4%[11.5 µM]
- O=C(c1ccccc1-c1nc2ccccc2[nH]1)N1CCOCC1
    i | i | 1e-09 | 2% | -1.2%
- COc1ccccc1CNC(=O)CCn1c(=O)sc2ccccc21
    i | i | 2.2e-08 | 7% | -2.7%
- CC(C)Sc1nc(SCC(=O)NCc2ccco2)c2c3c(sc2n1)COC(C)(C)C3
    i | i | 1e-09 | 10% | 0.5%
- OB(O)c1ccc(Br)cc1
    · | · | · | ? | 0.4%
- COC(=O)N1CN(C(=O)OC)CN(C(=O)OC)C1
    i | i | 6.4e-09 | -1% | -1.5%
- COc1ccc(S(=O)(=O)Nc2cccc(C)n2)c2ccccc12
    i | i | 4.5e-08 | 20% | -1.4%
- CC1(C)CC(=O)c2cc(OCC(=O)NCCN3CCCc4ccccc43)ccc2O1
    i | i | 1e-09 | ? | 18%
- O=C(c1ccco1)N1CCN(C(=O)C2CCCO2)CC1 (stereo not given)
    i | i | 1e-09 | 1% | -4.0%
- Cc1nc2ccccc2nc1CSc1nncs1
    i | i | 1e-09 | 3% | 1.4%
- O=C(CSc1ncn[nH]1)N1CCN(c2nnc(-c3ccccc3)c3ccccc23)CC1
    i | i | 6.8e-09 | -8% | -1.1%
- O=C(CN1CCCC1)Nc1ccc(NC(=O)Nc2ccccc2)cc1
    i | i | 1e-09 | -4% | 1.0%
- O=c1[nH]cnc2c1sc(=S)n2-c1ccccc1
    · | · | · | -1%[11.4 µM] | -1.1%
- Cc1ccc(C)c2[nH]c(=O)c(CN(CCN3CCOCC3)Cc3nnnn3CC3CCCO3)cc12 (stereo not given)
    i | i | 1.1e-08 | ? | -0.3%
- Cn1c(=NC(=O)c2cnccn2)sc2ccccc21
    i | i | 1e-09 | -4% | -0.2%
- O=C(OCc1c(Cl)nc2sccn12)c1cc2c(s1)CCCC2
    i | i | 3.3e-09 | ? | -1.5%
- CCOC(=O)N1CCN(C(=O)CCn2c(=S)[nH]c3cc(OCC)c(OCC)cc3c2=O)CC1
    i | i | 1e-09 | 1% | 0.5%
- COc1cc(OC)cc(OCC(O)Cn2ccnc2C)c1 (stereo not given)
    i | i | 3.1e-08 | 3% | -0.5%
- Cc1cccc(CNc2ccnc(-c3ccoc3)n2)c1
    i | i | 1.3e-09 | 8% | -0.6%
- COc1c(Cl)ccc(Cl)c1C(=O)NC(=O)N1CCOCC1
    i | i | 3.6e-09 | 1% | -0.6%
- O=C(Nc1cccnc1)c1cc(-c2cccs2)on1
    i | i | 1e-09 | -3% | 2.4%
- Cc1nc2ccccc2c2nc(NC(=O)Cc3ccccc3)nn12
    i | i | 1e-09 | -4% | -0.5%
- CC(=O)c1cccc(NC(=O)C2CCCN2S(=O)(=O)c2cccc3cccnc23)c1 (stereo not given)
    · | · | · | 1% | 1.7%
- COC(=O)[C@@]1(Cc2ccc(OC)cc2)[C@H]2c3cc(C(=O)N4CCCC4)n(Cc4ccc(O)c(OC)c4)c3C[C@H]2CN1C(=O)c1ccccc1
    · | · | · | ? | 0.0%
- CCN1CCN(C(c2ccccc2)c2nnnn2CCc2ccc(OC)c(OC)c2)CC1 (stereo not given)
    i | i | 1e-08 | 17% | 1.2%
- CC(=O)N1CCC2(CCN(Cc3ccccc3)CC2)CC1
    i | i | 1.5e-08 | 8% | 1.5%
- O=C(Nc1ccc(Cl)cc1)NC1CCS(=O)(=O)C1 (stereo not given)
    · | · | · | -11%[11.4 µM] | 0.8%

The listing continues:
Sequence of screens: A488 autofl | Resorufin autofl | A647 autofl | TSHR ag | AID923
- COC(=O)c1ccc(OC)c(CSc2nnc(COc3ccc(OC)cc3)o2)c1
    i | i | 1e-09 | ? | -0.9%
- CCOc1ccc(-n2c(=S)sc3c(=O)[nH]c(SCC(=O)NCc4ccco4)nc32)cc1
    i | i | 1e-09 | 16% | 1.7%
- CC1(C)CC(=O)C(C=NCC(O)c2ccccc2)=C(O)C1 (stereo not given)
    i | i | 4.9e-08 | · | ·
- Cc1c(N=Cc2cccs2)c(=O)n(-c2ccccc2)n1C
    · | · | · | -2% | 1.4%
- CCOC(=O)c1ccccc1NC(=O)c1ccc(Cl)c(S(=O)(=O)N2CCOCC2)c1
    i | i | 1.3e-08 | ? | 0.0%
- Cc1nc(/N=C\N(C)C)sc1C(=O)Nc1ccccc1
    · | · | · | 2%[11.4 µM] | 2.0%
- COc1ccccc1N1CCN(C(=O)c2cc(-c3ccco3)on2)CC1
    · | · | · | 3% | 2.6%
- COc1ccc(CN2CCN(C(=O)c3cccnc3)CC2)cc1Br
    i | i | 4.8e-09 | 8% | -1.8%
- Cc1ccc(C(C(=O)NC2CCCCC2)N(CCC(C)C)C(=O)CNC(=O)c2ccco2)o1 (stereo not given)
    i | i | 6.6e-08 | ? | -0.8%
- Cn1nc(CC(=O)NCCN2C(=O)CSC2=O)c2ccccc2c1=O
    i | i | 1e-09 | 3% | 1.0%
- CCN(CC)S(=O)(=O)c1ccc2oc(C(=O)NC(C)C)c(C)c2c1
    i | i | 1.2e-08 | 10%[11.4 µM] | -0.4%
- CS(=O)(=O)N1CCC2(CC1)CN(C(=O)Nc1ccccc1)C2
    i | i | 1e-09 | 5% | 1.6%
- CCC(=O)N1CCc2cc(S(=O)(=O)CCC(=O)Nc3ccc(CC)cc3)ccc21
    i | i | 1.1e-09 | 11% | 0.1%
- Cc1oc(C(=O)O)cc1COc1cccc2cccnc12
    · | · | · | 11% | 3.6%
- O=S1(=O)CCC(NS(=O)(=O)/C=C/c2ccccc2)C1 (stereo not given)
    i | i | 1e-09 | 4% | 1.9%
- Cc1ccc2oc(=O)c3cnn(CC(=O)NCCN(C)C)c3c2c1
    · | · | · | 1% | 3.4%
- COC(=O)CSc1nc(N)nc(C)c1Br
    i | i | 7.7e-08 | · | ·
- Cc1cc2n(n1)C(c1cn(-c3ccccc3)nc1C)Nc1ccccc1-2 (stereo not given)
    i | i | 1e-09 | 7% | 0.6%
- CCCCOc1cccc(C2(C(=O)O)CCCC2)c1
    · | · | · | 7% | 0.1%
- Cn1c(C(=O)NCCN2CCc3ccccc3C2)cc2c(=O)n(C)c3ccccc3c21
    · | · | · | -27% | 5.2%
- Cc1ccccc1-c1nc(CS(=O)(=O)CC(=O)NCCCN2CCCC2=O)c(C)o1
    · | · | · | 0% | 0.9%
- CCN1C(=O)/C(=C/N2CC(C)CC(C)C2)SC1=S (stereo not given)
    i | i | 4.7e-09 | 2% | 0.1%
- Cc1ccc(NCc2nnc(SCC(N)=O)n2CCc2ccccc2)cc1
    i | i | 7.6e-09 | 6% | -0.6%
- CCOC(=O)N1CCC(c2nc(C)sc2C(=O)O)CC1
    i | i | 4.1e-09 | 1% | 1.9%

Some of the compounds tested (hit frequency here may not be typical).
